MT1-MMP act inh – inhibitors of human MT1-MMP activation | 360,000 tested, 0.061% active | AID 651647 | GFP/RFP ratio change, % at 20 µM | HT1080 RFP-PRO-GFP cells, GFP/RFP ratio fluorescence, overnight; percent of plate control window, DMSO zero | P50281;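 active = GFP/RFP ratio change of at least 30% with cell ATP level not reduced by more than half and red fluorescence within 50% of control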; also: strong numbers were not always called active
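Assay system: HT1080 RFP-PRO-GFP cells | Dosing: 20 µM single dose, 1% DMSO | Incubation: Cells overnight before dosing, compound overnight, 37 °C, 5% CO2 | Evaluation: GFP/RFP fluorescence ratio | Control set: DMSO-only wells and HT1080 RFP-L50D-GFP cell wells as references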
HIV Env fusion – HIV envelope-mediated fusion inhibition | HeLa-JRFL Env/CEM21 cell fusion, luciferase | 360,000 tested, 1.1% active | AID 651610 | inhibition, % at 12.3 µM;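 active = mean replicate inhibition score of at least 50 and every replicate individually at or above 50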;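 also: 0% = plate neutral controls and 100% = maraviroc near 300 nM; one replicate is shown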
PABP polyA inh – blocks human PABP binding to poly(A) RNA | P11940 | fluorescence polarization | inhibition, % at 35 µM | 290,000 tested, 1% active;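 active = 50% or more with normal probe brightness, or confirmed in later tests; about a fifth of its hits are not listed in these tables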;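 also: calls also rest on retests at 20 µM and on dose response follow-up; controls were probe without protein and protein plus probe with vehicle; some compounds called inactive have numbers as strong as hits; many hits fall short of the cut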
Target sequence (P11940 whole entry, looked up): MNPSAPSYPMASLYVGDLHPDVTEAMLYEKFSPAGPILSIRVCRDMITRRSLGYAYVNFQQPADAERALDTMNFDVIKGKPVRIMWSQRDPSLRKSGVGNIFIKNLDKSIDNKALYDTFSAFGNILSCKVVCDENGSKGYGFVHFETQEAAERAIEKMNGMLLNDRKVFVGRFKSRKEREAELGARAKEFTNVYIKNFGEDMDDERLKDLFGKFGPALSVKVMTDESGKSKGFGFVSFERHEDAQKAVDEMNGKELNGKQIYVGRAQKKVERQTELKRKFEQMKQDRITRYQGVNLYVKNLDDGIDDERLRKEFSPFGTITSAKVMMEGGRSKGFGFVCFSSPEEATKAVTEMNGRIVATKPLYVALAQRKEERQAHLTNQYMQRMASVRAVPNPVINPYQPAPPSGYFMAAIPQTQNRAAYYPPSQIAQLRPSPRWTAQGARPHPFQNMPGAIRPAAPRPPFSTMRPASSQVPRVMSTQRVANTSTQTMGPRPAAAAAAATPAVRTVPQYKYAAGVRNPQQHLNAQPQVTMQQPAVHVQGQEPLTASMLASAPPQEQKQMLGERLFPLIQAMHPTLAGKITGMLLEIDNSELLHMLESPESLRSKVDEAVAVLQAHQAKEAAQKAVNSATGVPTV
Yeast UUG start – alters start codon recognition fidelity in yeast; 350,000 tested, 0.13% active; S. cerevisiae UUG-firefly luciferase reporter, luminescence/redox ratio; AID 602363; activity score, % at 18.7 µM;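 active = replicate mean at a twofold rise or more, about +100% in these data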;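 also: firefly luciferase made from a UUG start codon reports start codon fidelity; reporter light over untreated wells divided by growth signal over untreated wells; some hits fall short of that in this replicate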
eIF4H FP inh – inhibitors of RNA binding by human eIF4H | Q15056 | eIF4H fluorescence polarization binding assay | inhibition, % at 35 µM | 290,000 tested, 0.94% active;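 active = 50% or more with normal probe brightness, or confirmed in later tests; about a fifth of its hits are not listed in these tables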;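 also: calls also rest on retests at 20 µM and on dose response follow-up; 0% = protein and probe with vehicle and 100% = probe without protein; strong numbers were not always called active; many hits fall short of the cut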
Rce1 inh – blocks yeast Ras-converting enzyme. yeast membranes, quenched prenylated peptide cleavage fluorescence. Q03530. 290,000 tested, 0.27% active. AID 2563. calls only;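 active = fall in fluorescence gain of 50% or more versus controls, with final raw signal at or below 3038400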;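 also: plate controls were neutral control wells for no effect and wells lacking membranes for full effect; tested at 10 µM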
Target sequence (Q03530 whole entry, looked up): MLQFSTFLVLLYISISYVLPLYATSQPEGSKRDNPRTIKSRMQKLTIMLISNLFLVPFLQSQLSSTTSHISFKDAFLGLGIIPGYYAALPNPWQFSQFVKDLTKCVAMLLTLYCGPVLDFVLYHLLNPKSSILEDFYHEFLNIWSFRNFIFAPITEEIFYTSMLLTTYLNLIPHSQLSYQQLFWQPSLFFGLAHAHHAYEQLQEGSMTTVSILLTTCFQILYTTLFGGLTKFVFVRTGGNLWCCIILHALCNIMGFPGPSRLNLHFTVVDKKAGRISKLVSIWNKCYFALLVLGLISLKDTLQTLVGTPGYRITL
CSC inhib – blocks cancer stem cells; cancer stem cell-like cells viability, luminescence; inhibition, % at 7.5 µM; 300,000 tested, 1.1% active;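 active = mean at 75% or more and at least half the replicates too; tested in HMLE shEcad cells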;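 also: 0% = median of negative and 100% = median of positive control wells; the first replicate is given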
MT1-MMP act inh RFP – further read-out of MT1-MMP act inh, marked with its call; RFP signal change, %; measured here: RFP expression control read;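 0 = vehicle wells; hits needed this value within 50% of zero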
Active calls of the source: *; i = inactive; · = not tested or not shown.

#	smiles	MT1-MMP act inh	MT1-MMP act inh RFP	HIV Env fusion	PABP polyA inh	Yeast UUG start	eIF4H FP inh	Rce1 inh	CSC inhib
1	COc1cccc(NC(=S)NNC(=O)c2c([N+](=O)[O-])c(C)nn2C)c1	4	1	-49	-2	-13	14	i	·
2	CCc1ccc(C(=O)CN2C(=O)NC3(CCCCCC3)C2=O)cc1	5	5	-13	·	3	·	·	·
3	CCOC(=O)C1(Cc2cccc(F)c2)CCN(Cc2ccon2)CC1	-1	-2	-9	-8	·	3	i	-19
4	Cc1cc(C(=O)NCC(c2ccco2)N(C)C)ccc1[N+](=O)[O-] (stereo not given)	-1	0	0	4	-8	-8	i	-8
5	CCOC(=O)c1c(C)[nH]c(C)c1C(=O)CSc1nc(N)cc(N)n1	-7	-20	-13	9	-5	-3	i	-5
6	COc1ccc(NC(=O)COC(=O)CCCC2=NS(=O)(=O)c3ccccc3N2)cc1Cl	5	9	-17	3	-11	-8	i	-7
7	Cc1ccc(N2CCN(C(=O)c3nn(C)c4c3CS(=O)(=O)c3ccccc3-4)CC2)c(C)c1	-4	-7	·	0	-13	-1	i	-10
8	Cn1c(CN2CCCCC2)nc2cc(NC(=O)c3ccc(Cl)cc3)ccc21	-7	-19	79*	-2	-27	-1	·	8
9	S=c1nc(C2CC2)n(-c2ccccc2)[nH]1	2	3	14	-2	-13	-6	i	8
10	COc1ccccc1OC(=O)c1ccc2nsnc2c1	-1	-3	8	6	-7	-5	i	-6
11	Cc1nnc(NCCc2ccccc2)n(N)c1=O	-3	2	·	9	-2	-12	i	-4
12	CCC(C)C(NC(=O)C(N)CC(C)C)C(=O)NC(CCC(=O)OCc1ccccc1)C(N)=O (stereo not given)	6	-2	22	-1	-4	0	i	-2
13	O=C(O)c1ccccc1NSc1ccccc1[N+](=O)[O-]	4	1	-7	19	·	5	i	9
14	Cc1ccc(NC(=O)CCNC(=O)c2ccc(Br)cc2)cc1S(=O)(=O)N1CCCCCC1	-3	-14	14	·	9	·	i	8
15	COc1ccccc1C1C=C(c2ccc(Cl)cc2)Nc2nc(N3C(=O)CCC3=O)nn21 (stereo not given)	-31	1	-7	-2	-12	8	·	·
16	CN(C)C(=O)c1ccccc1Sc1ccc(Cl)cc1Cl	0	0	·	-6	42	-3	i	28
17	COC(=O)[C@@]12CCCCN1[C@H](c1ccc(-c3ccc(C(C)=O)cc3)cc1)[C@H]1C(=O)N(C)C(=O)[C@H]12	1	-4	-5	·	-35	·	i	-1
18	CC(C)C(NC(=O)c1ccc(Cl)cc1)C(=O)NC1=NCCS1 (stereo not given)	3	-7	-101	10	-10	-8	i	1
19	O=C(OCC(=O)N1CCN(C(=O)c2ccco2)CC1)c1cc(-c2ccc(F)cc2)nc2ccccc12	12	-8	·	1	·	-2	·	-17
20	COc1ccc(-c2cnc[nH]2)cc1	3	4	-2	1	-21	6	i	-11
21	N#Cc1ccc(NC(=S)N2CCC3CC2c2cc(-c4ccc5c(c4)OCO5)ccc23)cc1 (stereo not given)	0	-12	26	·	-12	·	·	·
22	Cc1ccc(-n2nc3c(c2NC(=O)c2ccc4c(c2)OCO4)CSC3)c(C)c1	-3	-9	-27	0	-36	-10	i	-11
23	Cc1ccc(NC2Sc3ccccc3NC2=O)cc1Cl (stereo not given)	1	-3	-12	9	-10	-8	i	27
24	CS(=O)(=O)c1ccc2nc(NC(=O)CCNC(=O)c3ccc([N+](=O)[O-])cc3)sc2c1	-2	0	-32	·	-16	·	·	·
25	CC/C(=N/NC(=O)c1ccc(Br)cc1)c1ccc(OCCN2CCOCC2)cc1	3	3	-10	4	·	5	i	21
26	Nc1cccc(NC(=O)c2cccs2)c1	-1	0	-55	-10	-22	-9	i	-6
27	CSc1ccc(CNCc2ccc3c(c2)OCO3)cc1	-1	-3	5	6	-3	4	i	-4
28	C(=N\Nc1nc(-c2cccnc2)nc2ccccc12)/c1ccccc1	-4	0	13	0	-23	2	i	-8
29	COc1cccc(N2C(=NC(=O)c3ccccc3)SC3CS(=O)(=O)CC32)c1 (stereo not given)	-2	-1	-8	-12	-7	-7	i	-8
30	COc1ccccc1CNC(=O)CN(C)CC(=O)Nc1cccc(F)c1	3	1	-80	-9	-2	-6	i	-8
31	Cn1c(SCC(=O)NCC2CCCO2)nc2c(c1=O)SCC2 (stereo not given)	-2	1	·	-6	-11	-6	i	·
32	CCN1CCN(C(=O)c2cc3c(=O)n4ccccc4nc3s2)CC1	-5	-2	8	2	-14	0	i	·
33	COC(=O)Oc1c(Br)c(=O)oc2ccccc12	-5	1	·	·	-5	·	i	-13
34	O=[N+]([O-])c1ccc(-c2nnc3cccc(Cl)n23)cc1	-2	-3	-7	4	-9	12	i	-5
35	COC(=O)C(NC(=O)C(C)Oc1ccccc1)C(C)C (stereo not given)	4	1	·	1	8	-5	i	5
36	CC(=O)NC(c1ccco1)c1cc(Cl)c2ccccc2c1O (stereo not given)	-12	9	·	·	-8	·	·	12
37	Cc1ccc(O)c(NC(=O)c2ccco2)c1	2	6	-46	2	-6	1	i	8
38	CCOC(=O)C1=C(C)N(CCCC(=O)O)C(=O)NC1c1ccccc1Cl (stereo not given)	·	·	7	·	·	·	i	-15
39	O=C(Nc1nc(-c2ccccc2)ns1)c1cccs1	-2	-10	·	-3	8	9	i	3
40	CC(=O)N(Cc1cc2c(C)cc(C)cc2[nH]c1=O)C1CCCCC1	-4	-10	·	-8	-10	-9	i	14
41	COc1ccccc1NC(=O)CSc1n[nH]c(-c2cccnc2)n1	-1	0	7	-9	-17	-2	·	-4
42	O=C(NC(=O)c1ccc(Cl)cc1)Nc1cc(N2CCCCC2)ncn1	10	9	·	·	-6	·	·	15
43	COCCNC(=S)NC1CC2CCC(C1)N2Cc1ccccc1 (stereo not given)	1	1	0	9	·	3	i	-4
44	COc1ccc(NC(=O)CSc2nnc(Cn3cnc([N+](=O)[O-])n3)n2C)cc1	0	3	1	4	-9	11	i	-4
45	O=C(C1CCN(C2CC(=O)N(Cc3ccccc3)C2=O)CC1)N1CCCCCC1 (stereo not given)	-3	0	·	8	-13	-1	i	-8
46	CCCNC(=O)CC1C(=O)N(Cc2ccccc2)C(C)c2nc3ccccc3n21 (stereo not given)	-3	-1	-150	-4	-2	-1	i	-19
47	CCN(CC)C(=O)Cn1cnc2ccccc2c1=O	1	4	-131	40	-17	-1	i	-17
48	Cc1cc2occ(CC(=O)N(C)CC(=O)Nc3cccc(F)c3)c2cc1C	3	4	7	-2	-1	-5	i	11
49	CC(C)N1CCc2c(sc(NC(=O)c3ccc(S(=O)(=O)N4CCOCC4)cc3)c2C#N)C1	-80	4	·	88*	-13	78*	i	0
50	Cc1ccc(C(=O)Nc2ccc(N3CCN(C(=O)c4cccs4)CC3)cc2)c(Cl)c1	-7	-14	25	9	-5	0	i	9

Further entries follow:
#	smiles	MT1-MMP act inh	MT1-MMP act inh RFP	HIV Env fusion	PABP polyA inh	Yeast UUG start	eIF4H FP inh	Rce1 inh	CSC inhib
51	COC(=O)c1ccc(Cn2c(C)c(C(=O)NCc3cccc([N+](=O)[O-])c3)sc2=O)o1	2	-2	14	·	-6	·	·	·
52	COc1ccc(NC(=O)CCCCCn2nnc3ccccc3c2=O)cc1	0	5	18	-10	-3	1	i	-2
53	Cc1ccc(C)c(N2CCN(S(=O)(=O)c3c(C)noc3C)CC2)c1	-6	-3	3	-8	-6	-7	i	9
54	CC1=NN(C(N)=S)C(=O)C1N=Nc1cccc([N+](=O)[O-])c1 (stereo not given)	5	1	-3	-3	-16	5	i	-18
55	CCOC(=O)c1ccc(Nc2nc(C)cc(C)n2)cc1	-1	-1	-18	-6	-7	-5	i	21
56	CCOc1ccc(CCNC(=O)COC(=O)c2nccnc2N)cc1OCC	0	4	7	·	-12	·	i	-1
57	CS(=O)(=O)N(Cc1ccc(C(=O)NN=C2CCCC2)cc1)c1ccccc1	6	6	-3	0	·	-3	i	18
58	COc1ccccc1N1CCN(C(=O)CCNC(=O)c2ccco2)CC1	-2	4	-12	·	-16	·	·	·
59	Cc1ccc(S(=O)(=O)n2c(CN3CCCC(C)C3)nc3ccccc32)cc1 (stereo not given)	-12	-6	·	-10	-14	-11	i	38
60	COc1ccc2[nH]c3c(N4CC(C)OC(C)C4)ncnc3c2c1 (stereo not given)	·	·	39	-14	·	-12	i	1
61	O=C(Nc1ccc([N+](=O)[O-])cc1)C1COc2ccccc2O1 (stereo not given)	4	-4	-4	-5	-9	-1	i	-9
62	CCCNC(=O)c1ccc(N2CCC3(CC2)CC(c2ccccc2)=NO3)c(N)c1	5	-10	1	4	-10	6	i	1
63	Cn1cc(CN2CCCC(C(=O)c3ccc(-c4ccccc4)c(F)c3)C2)cn1 (stereo not given)	-2	-5	20	6	·	-2	i	23
64	COc1ccc(C(C)(NC(C)=O)c2nc(-c3cccc(C(=O)O)c3)cs2)cc1 (stereo not given)	-4	4	-14	·	2	·	·	·
65	Nc1nnc(SCC(=O)N2CCN(c3cccc(Cl)c3)CC2)n1-c1ccccc1	7	-3	-42	·	-20	·	i	-10
66	COC(=O)c1cc(S(=O)(=O)N2CCOCC2)c(Cl)cc1N1CCOCC1	2	-3	29	-1	-8	-12	·	-9
67	N#CC1=C(N)SC2(CCCCC2)SC1c1ccccc1 (stereo not given)	-2	1	·	1	-18	4	i	-12
68	O=S(=O)(Nc1ccccc1N1CCOCC1)c1c(F)cc(F)cc1Br	2	1	9	·	-19	·	·	-2
69	O=C(CNC(=O)C1CCCCC1)NNC(=O)c1ccc(Cl)cc1Cl	-2	4	·	5	-4	10	i	-12
70	COc1ccc(Cl)cc1NCCC(O)c1ccc(F)cc1 (stereo not given)	4	-7	-1	9	-14	1	i	3
71	Cc1cc(C(=O)Nc2ccccc2)oc1C	-3	-3	·	-10	·	0	i	-13
72	CCOC(=O)N(NC(=O)C(O)(C(C)C)C(C)C)c1ccccc1	1	5	-22	-21	·	-3	i	-17
73	COCCNc1nc(Nc2ccccc2Cl)c2sccc2n1	-3	-11	-71	·	-10	·	·	·
74	N/C(=N\OS(=O)(=O)c1ccccc1)c1ccncc1	2	9	·	-3	-21	-8	i	15
75	CCCN(CCO)Cc1ccc(Cl)c(Cl)c1	4	0	-24	16	-24	-3	i	-21
76	COCOc1ccc(-c2cc(=O)c3c(OCOC)cc(OCOC)cc3o2)cc1	6	3	·	·	-7	·	i	-6
77	CCOc1ccccc1NC(=O)COn1nnc2ccc(Cl)cc21	-6	-1	-7	5	-25	0	i	17
78	O=C(NCC1CCCO1)C1CCC(=O)N1CCc1ccccc1 (stereo not given)	0	10	·	-15	-16	3	i	-4
79	CC(C)(C)N1NC2(CCCCC2)NC1=S	-4	2	-18	6	-26	-8	i	-13
80	Cc1cccc(/C(N)=N/OC(=O)c2cccnc2)c1	1	1	-81	-2	-28	-8	i	8
81	COC(=O)C1(CCSC)NC(c2ccccc2F)C2C(=O)N(c3ccc4c(c3)OCCO4)C(=O)C21 (stereo not given)	1	-2	9	-3	17	-8	i	-3
82	Cc1ccc(NC(=O)N(CCCN2CCOCC2)Cc2cccs2)cc1C	0	3	29	-2	7	-1	i	-4
83	C/C(CC(=O)Nc1cccc(C(F)(F)F)c1)=N\NC(=O)Cc1ccccc1	5	3	-6	3	·	4	i	-1
84	O=C(COc1ccc(Cl)cc1)N1CCN(C(=O)c2cccc(F)c2)CC1	2	-1	-1	-3	8	-8	i	5

Two compounds drawn at random from the list so far:
#	smiles	MT1-MMP act inh	MT1-MMP act inh RFP	HIV Env fusion	PABP polyA inh	Yeast UUG start	eIF4H FP inh	Rce1 inh	CSC inhib
55	CCOC(=O)c1ccc(Nc2nc(C)cc(C)n2)cc1	-1	-1	-18	-6	-7	-5	i	21
70	COc1ccc(Cl)cc1NCCC(O)c1ccc(F)cc1 (stereo not given)	4	-7	-1	9	-14	1	i	3

Bioassay records (PubChem BioAssay)
